StopGo RLuc: Primary qHTS Assay for Foot and Mouth Disease Virus Antivirals against NCGC Sytravon and CBC Compound Libraries: Renilla Luciferase Signal | HEK cells with a luciferase reporter of 2A StopGo recoding | Potency, µM (top dose mostly 57.5 µM), inactives show at the top dose signal change, negative = less light | 0.32% of 120,000 active; active means well fitted falling curve with a large enough effect; inconclusive means small, poorly fitted or top-dose-only effect; inactive means no such curve, though single readings can be large or run the other way; further: nearly all actives have a fitted effect of over 55% in size; overnight with compound
2A firefly: Primary qHTS Assay for Foot and Mouth Disease Virus Antivirals against NCGC Sytravon and CBC Compound Libraries: Firefly Luciferase Signal; HEK cells with a luciferase reporter of 2A StopGo recoding; AID 1745856, 2022; Potency, µM (doses to about 57.5 µM), without a hit: top-dose signal change, negative = less light; 0.23% of 120,000 active; active = well fitted falling curve with a large enough effect; inconclusive = small, poorly fitted or top-dose-only effect; inactive = no such curve, though single readings can be large or run the other way; further: nearly all actives have a fitted effect of over 60% in size; overnight with compound
* hit, by the source's call; ? = inconclusive; [ ] = dose if it differs, or a comment. On the % scale 0 is the no-effect control and ±100 the full control effect; potency means the concentration at half of the fitted maximal effect. Not all compounds are listed (hit frequency here may not be typical).

The opening 16 compounds as a preview:
entry	Compound	StopGo RLuc	2A firefly
1	Cc1sc2nc(C(C)Sc3nnnn3C3CCCC3)[nH]c(=O)c2c1C (stereo not given)	-23%	?
2	O=C(N/N=C/c1ccccc1Br)c1csc2ccccc12	8%	42%[activator]
3	O=C(c1ccco1)c1cn(CCOc2ccc(F)cc2)c2ccccc12	-13%	7%
4	O=C(CC(c1ccc(Cl)cc1)S(=O)(=O)c1ccccc1)c1ccccc1 (stereo not given)	-1%	4%
5	O=C(Nc1ccccc1)c1cccc(S(=O)(=O)Nc2cccc(F)c2)c1	0%	1%
6	CCC(=O)N1CCc2cc(Br)cc(S(=O)(=O)CCC(=O)N(C)c3cccc(C)c3)c21	12%	-9%
7	CCc1ccc(NC(=O)Cn2c(=O)n(CCCCC(=O)NCc3ccc4c(c3)OCO4)c(=O)c3ccccc32)cc1	-11%	-21%
8	FC(F)Oc1cc(Cl)ccc1C1CC(c2ccc(Br)cc2)n2c(nc3ccccc32)N1 (stereo not given)	-6%	-4%
9	CCOc1ccc(-n2c(SCC(=O)Nc3ccccc3OC)nc3c(oc4ccccc43)c2=O)cc1	-12%	-17%
10	CC(C)(C)NC(=O)c1ccc(NC(=O)C2CCCC2)cc1	1%	23%
11	Cc1cccc(C(=O)Nc2nonc2-c2ccc(Cl)cc2)c1	?	?
12	Cc1ccc(NC(=O)c2cc(S(=O)(=O)NCCc3ccc(Cl)cc3)ccc2F)cc1	150%[activator]	?
13	Cc1ccc(C)c(SCC(=O)Nc2ccc(S(=O)(=O)Nc3ncccn3)cc2)c1	13%	-4%
14	CCCCCc1ccc(C#Cc2ccc(OC)cc2)cc1	-7%[1.06 µM]	25%
15	Cc1cccc(NC(=O)Cn2nc(-c3ccc(Cl)cc3)c3ccccc3c2=O)c1	-14%	-8%
16	O=C(Nc1ccc2c(c1)OCCO2)c1cc2cc(Br)ccc2[nH]1	16%	86%[activator]

The whole of this part, from the start:
entry	Compound	StopGo RLuc	2A firefly
1	Cc1sc2nc(C(C)Sc3nnnn3C3CCCC3)[nH]c(=O)c2c1C (stereo not given)	-23%	?
2	O=C(N/N=C/c1ccccc1Br)c1csc2ccccc12	8%	42%[activator]
3	O=C(c1ccco1)c1cn(CCOc2ccc(F)cc2)c2ccccc12	-13%	7%
4	O=C(CC(c1ccc(Cl)cc1)S(=O)(=O)c1ccccc1)c1ccccc1 (stereo not given)	-1%	4%
5	O=C(Nc1ccccc1)c1cccc(S(=O)(=O)Nc2cccc(F)c2)c1	0%	1%
6	CCC(=O)N1CCc2cc(Br)cc(S(=O)(=O)CCC(=O)N(C)c3cccc(C)c3)c21	12%	-9%
7	CCc1ccc(NC(=O)Cn2c(=O)n(CCCCC(=O)NCc3ccc4c(c3)OCO4)c(=O)c3ccccc32)cc1	-11%	-21%
8	FC(F)Oc1cc(Cl)ccc1C1CC(c2ccc(Br)cc2)n2c(nc3ccccc32)N1 (stereo not given)	-6%	-4%
9	CCOc1ccc(-n2c(SCC(=O)Nc3ccccc3OC)nc3c(oc4ccccc43)c2=O)cc1	-12%	-17%
10	CC(C)(C)NC(=O)c1ccc(NC(=O)C2CCCC2)cc1	1%	23%
11	Cc1cccc(C(=O)Nc2nonc2-c2ccc(Cl)cc2)c1	?	?
12	Cc1ccc(NC(=O)c2cc(S(=O)(=O)NCCc3ccc(Cl)cc3)ccc2F)cc1	150%[activator]	?
13	Cc1ccc(C)c(SCC(=O)Nc2ccc(S(=O)(=O)Nc3ncccn3)cc2)c1	13%	-4%
14	CCCCCc1ccc(C#Cc2ccc(OC)cc2)cc1	-7%[1.06 µM]	25%
15	Cc1cccc(NC(=O)Cn2nc(-c3ccc(Cl)cc3)c3ccccc3c2=O)c1	-14%	-8%
16	O=C(Nc1ccc2c(c1)OCCO2)c1cc2cc(Br)ccc2[nH]1	16%	86%[activator]
17	COc1ccc2c(=O)c(-c3cnn(-c4ccccc4)c3)c(C(F)(F)F)oc2c1	5%	65%[activator]
18	COc1ccc(CNC(=O)Cn2c(=O)oc3cc(S(=O)(=O)NCc4ccccc4)ccc32)cc1	66%[activator]	?
19	O=C(NCCCN1CCCC1)C1CCNCC1	-10%	7%
20	O=C(NCc1ccc(Cl)cc1)C1CCN(c2nn3cc(-c4ccc(F)cc4)nc3s2)CC1	-7%	60%[activator]
21	Cc1ccc(-n2nc(C(=O)Nc3cccc(C#N)c3)c3c4ccccc4n(C)c3c2=O)cc1	?	?
22	CC(C)c1ccc(C2=CC(c3ccc(C(C)C)cc3)n3nnnc3N2)cc1 (stereo not given)	-8%	91%[activator]
23	COc1ccc(S(=O)(=O)c2c(O)c(C)cc(NS(=O)(=O)c3ccc(Cl)cc3)c2C(C)C)cc1	0%	?
24	O=C(NC1CCCC1)c1ccc(CSc2nc3cccnc3n2Cc2ccccc2)cc1	3%	-13%
25	COc1cc2nc(-c3ccc(C)c(C)c3)oc(=O)c2cc1OC	-1%	-5%
26	COc1ccccc1NC(=O)c1oc2ccccc2c1NC(=O)COc1ccccc1OC	-11%	-1%
27	COc1ccc(CN2CCN(Cc3cccc(OC)c3OC)CC2)cc1	1%	7%
28	COCc1ccc(CNC(=O)C(C)(C)C)cc1	5%	3%
29	COc1ccc(-c2nc(C)c(CCNC(=O)c3ccc(F)c(F)c3)s2)cc1	19%	214%[activator]
30	O=C(CSc1nc2ccc(NC(=O)c3ccccc3F)cc2s1)Nc1ccccc1	14%	92%[activator]
31	Clc1ccc(-c2noc(-c3ccco3)n2)cc1	4%	185%[activator]
32	O=c1cc(CSc2ccc3c(c2)OCCO3)c2c(ccc3ccccc32)o1	23%	0%
33	CCc1ccc(-n2c(=O)c3c(C)c(C)sc3n(CC(=O)NCc3ccc(C)cc3)c2=O)cc1	-9%	2%
34	Cc1ccc2oc(=O)n(CCNC(=O)Nc3ccc4c(c3)OCCO4)c2c1	16%	96%[activator]
35	O=C(CSc1nnc2ccccn12)Nc1cccc(S(=O)(=O)N2CCCC2)c1	47%[activator]	13%
36	Cc1ccc(CNC(=O)Cn2c(=O)n(-c3cccc(Cl)c3)c(=O)c3sc4ccccc4c32)cc1	-5%	-2%
37	COc1ccccc1N1CCN(c2ccc(-c3nc(-c4ccccc4)no3)cc2[N+](=O)[O-])CC1	-9%	22%
38	N#Cc1nc(-c2ccco2)oc1N1CCC(C(=O)N2CCC(CCN3CCOCC3)CC2)CC1	-11%	-8%
39	Cc1ccc(C)c(NC(=O)CCc2nc3cccnc3n2Cc2cccs2)c1	-7%	-12%
40	CCOC(=O)c1ccc(NC(=O)CC2Nc3cc(C)c(C)cc3NC2=O)cc1 (stereo not given)	-4%	3%
41	Fc1ccccc1CN1CCC(NCC2CNc3ccnn3C2)CC1 (stereo not given)	-5%	-3%
42	CCOC(=O)c1cnc2c(Cl)c(Cl)ccc2c1NCCOC(=O)C(C)C	4%	11%
43	C/C(=N\NC(N)=S)c1cccc([N+](=O)[O-])c1	1%	0%
44	Cc1ccccc1Nc1ncnc2c1cnn2C	-10%	-11%
45	COCCn1c(SCC(=O)c2ccc3c(c2)OCCO3)nnc1-c1ccc(Cl)cc1	10%	-11%
46	Cn1ccnc1SCC(=O)NC(C)(C#N)C1CC1 (stereo not given)	-6%	-1%
47	CCCCCN1CCN(c2nc3c(c(=O)[nH]c(=O)n3C)n2Cc2ccc(Cl)cc2Cl)CC1	-8%	-10%
48	Cc1sc(N)nc1-c1ccc(NC(=O)C(C)C)cc1	-5%	141%[activator]
49	CCCCN1CCN(C(=O)c2cc(-c3ccncc3)nc3ccccc23)CC1	52%[activator]	51%[activator]
50	CCCn1nc(C(=O)Nc2ccc(OC)c(OC(F)F)c2)c2ccccc2c1=O	30%[activator]	0%

Exported in transposed form: 2 of the compounds above.
30	O=C(CSc1nc2ccc(NC(=O)c3ccccc3F)cc2s1)Nc1ccccc1
31	Clc1ccc(-c2noc(-c3ccco3)n2)cc1

| compound no. | 30 | 31 |
| --- | --- | --- |
| StopGo RLuc | 14% | 4% |
| 2A firefly | 92%[activator] | 185%[activator] |

Remaining list, next part:
entry	Compound	StopGo RLuc	2A firefly
51	Cc1c(C(=O)Nc2ccccc2F)sc2nc3n(c(=O)c12)CCC3	-3%	100%[activator]
52	Cc1nc2nncn2c(Nc2ccccc2)c1C	?	?
53	CN(C)S(=O)(=O)c1cc(C(=O)NCc2coc(-c3cccs3)n2)ccc1Cl	63%[activator]	-10%
54	O=C(CCc1ccco1)OCC(=O)c1ccc2c(c1)OCO2	18%	0%
55	Cc1oc(-c2ccccc2)nc1C(=O)N(C)Cc1ccc(Br)cc1	-10%	-3%
56	COc1ccc(NC(=O)CCS(=O)(=O)c2ccc3c(c2)oc(=O)n3C)cc1OC	-9%	-14%
57	CCCCN(CCCC)C(=O)c1c[nH]c2ccc(S(=O)(=O)Nc3cccc(Cl)c3C)cc2c1=O	-5%	?
58	O=C(O)c1c[nH]c2ccccc12	5%	0%
59	C=CCNC(=O)c1ccc(C(=O)NC(Cc2ccccc2)C(=O)O)cc1C(=O)O (stereo not given)	3%	5%
60	CCOC(=O)c1cc(-c2ccc(S(=O)(=O)N3CCN(c4cccc(C)c4C)CC3)s2)on1	4%	3%
61	N#Cc1cccc(CNS(=O)(=O)Cc2ccccc2)c1	15%	14%
62	CC1(C)O[C@H]2[C@@H](O1)[C@@H](C(=O)Nc1ccccc1C(F)(F)F)O[C@@H]1OC(C)(C)O[C@@H]12	-12%	-14%
63	CC(C)c1ccc(/C=C2\Oc3cc(OS(=O)(=O)c4ccccc4)ccc3C2=O)cc1	0%	-1%
64	O=C(NCCc1cccc(F)c1)C1CCCC1	5%	114%[activator]
65	CSc1ccc([C@H]2[C@@H](C(=O)O)c3ccccc3C(=O)N2Cc2ccc(F)cc2)cc1	4%	-12%
66	Cc1ccccc1-c1nc(CS(=O)(=O)CC(=O)NCCCc2ccccc2)c(C)o1	3%	-25%
67	COC(=O)CN1C(=O)C(C)(C)c2cc(S(=O)(=O)NCc3ccc(Cl)cc3)ccc21	54%[activator]	-14%
68	COc1ccc(Nc2ncc(C(=O)N3CCN(c4ccc(F)cc4)CC3)c3ccccc23)cc1	-4%	?
69	CCOC(=O)c1ccc(NC(=O)c2cccn(Cc3ccccc3F)c2=O)cc1	?	?
70	COc1cc(C(=O)N2CCC(C(=O)Nc3ccccc3)CC2)ccc1OCc1c(C)noc1C	20%	19%
71	CCOc1ccccc1Oc1coc2cc(OC(=O)c3ccccc3)ccc2c1=O	13%	42%[activator]
72	Cc1ccc(-c2cnc(CCC(=O)N(C)C(C)c3ccc(S(N)(=O)=O)cc3)o2)cc1C (stereo not given)	?	?
73	CCc1ccccc1Nc1cc(C(=O)NC(C)c2ccccc2)c2ccccc2n1 (stereo not given)	60%[activator]	-12%
74	O=C(NCC1(c2ccc(F)cc2)CC1)C1CCN(C(=O)CCc2ccccc2)CC1	22%	50%[activator]
75	O=C(CCNC(=O)c1ccccc1Cl)Nc1nc2ccccc2s1	0%	85%[activator]
76	O=C(COc1ccc2ccc(=O)oc2c1)NCc1ccc(F)cc1	2%	4%
77	Fc1ccccc1-c1nc(N2CCN(c3cccc(Cl)c3)CC2)c2ccccc2n1	-11%	1%
78	COc1ccc(CNC(=O)Cc2c(C)c3cc4c(C)coc4c(C)c3oc2=O)cc1	-4%	-10%
79	CCNC(=O)Cn1c(CO)cnc1SCc1ccccc1C	-5%	-1%
80	Cc1cccc(CNC(=O)CN2C(=O)C3CCCCN3c3ccc(C(=O)N4CCCC4)cc32)c1 (stereo not given)	70%[activator]	12%
81	COc1ccc(OC)c(NC(=O)C2CC(=O)Nc3c(-c4ccc(F)cc4)cnn32)c1 (stereo not given)	-4%	17%
82	Cc1ccc(Oc2c(C(F)(F)F)oc3c(CN4CCCCC4C)c(O)ccc3c2=O)cc1 (stereo not given)	15%	4%
83	O=C(Nc1ccc(-c2nc3ccccc3o2)cc1)c1ccc2c(c1)OCO2	2%	67%[activator]
84	CCC(CC)C(=O)Nc1cc(-c2ccccc2F)nn1-c1ccccc1	8%	-6%
85	CCN(C(=O)c1cccc(Br)c1)C1CC1	3%	0%
86	CCC1(c2ccccc2)NC(=O)N(NC(=O)c2nn(-c3ccccc3)c(=O)c3ccccc23)C1=O (stereo not given)	-1%	-11%
87	CNc1c(NC(=O)NCCC(C)C)c(=O)oc2ccccc12	-2%	3%
88	Cc1ccc(NC(=O)Cn2c(=O)oc3ccccc32)cc1C	8%	32%[activator]
89	COc1ccc(C2=NN(S(C)(=O)=O)C(c3cn(-c4ccccc4)nc3-c3cccs3)C2)cc1 (stereo not given)	-6%	-4%
90	Cc1ccc([N+](=O)[O-])cc1S(=O)(=O)N1CCn2cccc2C1c1ccccc1 (stereo not given)	3%	-14%
91	CC(C)OCCCNC(=O)CCCn1c(SCC(N)=O)nc2c(sc3ccccc32)c1=O	-5%	-14%
92	COc1cc(C=O)cc(Cl)c1OCc1cccc(C(=O)O)c1	13%	0%
93	Cc1n[nH]c(C)c1CCCCOc1ccc(C(C)(C)C)cc1	?	?
94	Cc1ccc2oc(C(=O)OCc3ccccc3)cc(=O)c2c1	-9%	-18%
95	Cc1ccccc1OCC(O)Cn1c(N)nc2c1c(=O)n(C)c(=O)n2C (stereo not given)	18%	21%
96	COc1ccc2c(C)c(CC(=O)N3CCN(C(=O)C4COc5ccccc5O4)CC3)c(=O)oc2c1C (stereo not given)	-15%	-11%
97	COc1cc(/C=C(\C#N)c2nc3ccccc3[nH]2)ccc1OC(C)C	32%[activator]	119%[activator]
98	CCCCCCCCCCNC(=S)Nc1ccccc1	65%[activator]	18%
99	N#Cc1ccc(OCCOC(=O)CCc2ccc3ccccc3n2)cc1	-3%	4%
100	Cc1[nH]c(C#N)c(C)c1C=O	-1%	-9%
101	COc1ccc(C2C(C(C)=O)=C(C)Oc3ncn4nc(-c5cccnc5)nc4c32)cc1 (stereo not given)	7%	1%

From PubChem
